Source: PubChem
LANA-H2A inh – blockers of LANA interaction with H2A/H2B – biochemical, FP readout, HTS, primary screen; Protein LANA1 (Human herpesvirus 8 type P (isolate GK18)), Q9QR71; cell-free LANA-H2A/H2B peptide, fluorescence polarization; inhibition, % (test concentration not listed); 0.6% of 320,000 active; AID 2629, 2010; in the data active means inhibition mostly above about 10%, no sharp cut-off; inactive means mostly below about 6.7%;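 further: stock transfer was 7.5 nL into about 10 µL; 0% = median of vehicle wells and 100% = median of positive control wells; one replicate is shown; the record names a cut of 25% in any replicate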
HNF4A DNA FP – change in binding of human HNF4A to DNA, primary screen, biochemical, fluorescence polarization, FITC-DNA; Hepatocyte nuclear factor 4-alpha (Homo sapiens), P41235; 1 h; activity change, % at 10 µM; 0.3% of 360,000 active; in the data active means activity change above about 30%, passing the limit was not always enough;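 further: controls were the assay level and a saturating level of protein; the project sought stronger binding though the title names inhibitors; some compounds called inactive have numbers as strong as hits; positive values seem to mean higher polarization but the record does not say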
Target sequence (P41235 whole entry, looked up): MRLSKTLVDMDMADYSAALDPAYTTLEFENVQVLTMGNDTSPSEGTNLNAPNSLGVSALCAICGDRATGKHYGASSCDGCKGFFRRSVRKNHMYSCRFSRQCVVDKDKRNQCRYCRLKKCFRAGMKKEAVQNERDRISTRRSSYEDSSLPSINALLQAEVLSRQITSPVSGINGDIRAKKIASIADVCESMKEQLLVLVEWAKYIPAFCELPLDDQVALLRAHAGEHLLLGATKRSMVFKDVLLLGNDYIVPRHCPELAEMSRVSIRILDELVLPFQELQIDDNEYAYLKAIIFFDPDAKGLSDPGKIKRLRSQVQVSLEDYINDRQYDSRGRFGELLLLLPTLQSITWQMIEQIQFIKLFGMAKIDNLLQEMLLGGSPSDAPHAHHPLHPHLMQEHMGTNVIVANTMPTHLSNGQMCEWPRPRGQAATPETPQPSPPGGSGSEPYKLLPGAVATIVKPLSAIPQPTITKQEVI
B2AR ag – beta2AR agonists driving receptor internalization, primary screen, cell-based, FAP fluorogen, flow cytometry | Beta-2 adrenergic receptor (Homo sapiens), P07550 | 0.43% of 340,000 active | AID 504454, 2011 | Am2.2-beta2AR cells; reference of the scale not given here | response, % (concentration not given with the values);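 active means response above a set limit, near 3 SD of response in nonfluorescent compounds, cut at about 42% in these data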;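 further: stock transfer was 100 nL into about 11 µL; a reference agonist was the positive control; negative values mostly stem from fluorescent compounds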
E coli growth – E. coli growth inhibition, primary screen, OD600; OD600 absorbance (no concentration beside the values); AID 1053175, 2014; Escherichia coli growth, 23 h; stronger effect = lower value; 0.21% of 330,000 active;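 active means OD600 absorbance below the run mean of sample wells minus 3.6 SD, in any replicate, cut at about 0.56 in these data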;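 further: stock transfer was 300 nL into about 60 µL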
UCH37 inh – inhibitors of human UCH37 deubiquitinase, primary screen, biochemical, Ub-AMC cleavage, fluorescence. 0.33% of 330,000 active. inhibition, % (no concentration beside the values). Ubiquitin carboxyl-terminal hydrolase isozyme L5 (Homo sapiens), Q9Y5K5. purified proteasome/UCH37;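 active means mean of two replicates above 20%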;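 further: 0% = compound-free wells with enzyme and 100% = wells lacking proteasome; stock transfer was 100 nL into about 20 µL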
Target sequence (Q9Y5K5 whole entry, looked up): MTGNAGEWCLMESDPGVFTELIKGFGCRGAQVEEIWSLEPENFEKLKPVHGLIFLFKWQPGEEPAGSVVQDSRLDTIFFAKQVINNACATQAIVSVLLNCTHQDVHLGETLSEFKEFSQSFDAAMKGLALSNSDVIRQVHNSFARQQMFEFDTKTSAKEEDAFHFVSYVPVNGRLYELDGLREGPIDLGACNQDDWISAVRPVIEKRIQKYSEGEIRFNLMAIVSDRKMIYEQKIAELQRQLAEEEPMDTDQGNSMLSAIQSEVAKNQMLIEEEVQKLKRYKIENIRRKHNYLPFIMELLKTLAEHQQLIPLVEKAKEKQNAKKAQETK
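Material: Human UCH37 enzyme supplied as purified proteasome complex | Schedule: 30 min preincubation with enzyme, 25 min cleavage at room temperature | Detection: AMC fluorescence 355/460 nm | Measure: % inhibition of Ub-AMC cleavage fluorescence | Controls: Wells without proteasome as full block, compound-free enzyme plus substrate as uninhibited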
ALR H2O2 inh – inhibitors of human ALR sulfhydryl oxidase, primary screen, biochemical, H2O2 detection, HRP-luminol luminescence, single point | AID 485317, 2010 | inhibition, % (concentration not given with the values) | purified ALR, DTT oxidation | 3.8% of 290,000 active | FAD-linked sulfhydryl oxidase ALR (Homo sapiens), P55789;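 active means mean and each replicate at 75% or more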;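 further: stock transfer was 7.5 nL into about 7.5 µL; 0% = neutral wells and 100% = wells with inactivated enzyme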
FGF22 binding – binders of human FGF22 protein, primary screen, FGF22 synaptogenesis inhibitor project, biophysical, thermal shift, single point; recombinant FGF22 thermal shift, SYPRO orange fluorescence; percent of sucrose octasulfate shift, DMSO zero; calls only at 9.99 µM; 1.5% of 340,000 active; AID 651658, 2012;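 active means melting point raised past a set limit in the mean and every replicate; three in four hits are not shown here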
Target sequence (Q9HCT0 whole entry, looked up): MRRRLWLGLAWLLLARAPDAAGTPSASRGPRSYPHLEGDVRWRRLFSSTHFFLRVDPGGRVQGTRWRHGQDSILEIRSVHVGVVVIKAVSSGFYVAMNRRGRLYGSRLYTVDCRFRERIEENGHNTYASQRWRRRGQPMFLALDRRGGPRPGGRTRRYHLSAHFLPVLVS
Numbers without * were called inactive. Some of the compounds tested. The share of hits here may be higher or lower than overall.

Screening CC1CN(CCN2CC(C)N(C=O)CC2C)C(C)CN1C=O (centres undefined) returned HNF4A DNA FP -0.3, B2AR ag -5.4, E coli growth 0.627, UCH37 inh -0.6 and FGF22 binding inactive.
For O=c1nc(NCc2ccccc2Cl)cn[nH]1 the results were LANA-H2A inh 0.8, HNF4A DNA FP -0.6, B2AR ag 10.8, E coli growth 0.696, UCH37 inh 2.4, ALR H2O2 inh -7.5 and FGF22 binding inactive.
Screening CCCCCCCCCCCCN1[C@@H](CC(=O)OC)c2cc(F)cc(F)c2S1(=O)=O returned LANA-H2A inh 3.7, HNF4A DNA FP 1.3, B2AR ag -6.8, UCH37 inh 4.4 and ALR H2O2 inh -8.6.
O=[N+]([O-])c1cccnc1Sc1n[nH]c(-c2ccc(Cl)cc2)n1 was read as LANA-H2A inh -4.3, HNF4A DNA FP 4.7, B2AR ag -0.8, E coli growth 0.614, UCH37 inh 5.3, ALR H2O2 inh 17.0 and FGF22 binding inactive.
`c1ccc2c(OCCCCN3CCOCC3)cccc2c1` gave LANA-H2A inh 2.8, HNF4A DNA FP -3.1, B2AR ag 1.8, E coli growth 0.641, UCH37 inh 1.6, ALR H2O2 inh -24.3 and FGF22 binding inactive.
`CCOC(=O)C(NC(C)=O)(Nc1ccc(S(=O)(=O)Nc2nccs2)cc1)C(F)(F)F` (centres undefined) gave LANA-H2A inh -1.5, HNF4A DNA FP -5.9, B2AR ag -3.6, E coli growth 0.708, UCH37 inh 2.5 and ALR H2O2 inh -2.5.
c1ccc2c(Nc3nc(N4CCOCC4)c4ccccc4n3)cccc2c1 was read as LANA-H2A inh -1.8, HNF4A DNA FP -2.9, B2AR ag -0.5, E coli growth 0.626, UCH37 inh -31.0, ALR H2O2 inh -7.0 and FGF22 binding inactive.
CCOC(=O)C1CCCN(Cc2cc(OC)c(O)c(OC)c2)C1 (centres undefined) was read as LANA-H2A inh -1.5, HNF4A DNA FP -2.6, B2AR ag -1.3, E coli growth 0.727, UCH37 inh 1.0 and ALR H2O2 inh -5.5.
For Cc1cc(=O)oc(C)c1C(=O)Nc1cccc(F)c1 the results were LANA-H2A inh -1.6, HNF4A DNA FP 3.9, B2AR ag 9.4, E coli growth 0.654, UCH37 inh 3.0, ALR H2O2 inh -8.0 and FGF22 binding inactive.
Screening CC(=O)Nc1ccc(-c2cc3ccccc3o2)cc1 returned LANA-H2A inh -2.9, HNF4A DNA FP 0.3, B2AR ag 7.4, E coli growth 0.623, UCH37 inh -2.4 and ALR H2O2 inh -11.5.
For CCCc1cc(=O)oc2c(C)c(OCC(=O)N3C[C@H]4C[C@@H](C3)c3cccc(=O)n3C4)ccc12 the results were LANA-H2A inh -3.8, HNF4A DNA FP -0.6, B2AR ag -2.9, E coli growth 0.758, UCH37 inh -2.6 and FGF22 binding inactive.
For CCOC(=O)c1ccc(NC(=O)C2CC2)cc1 the results were LANA-H2A inh 3.6, HNF4A DNA FP -0.9, B2AR ag 32.1, E coli growth 0.686, UCH37 inh 1.9 and ALR H2O2 inh -2.7.
`O=C1c2cccc3cccc(c23)C(=O)N1c1ccccn1` gave LANA-H2A inh -5.5, HNF4A DNA FP -2.3, B2AR ag -2.3, E coli growth 0.657, UCH37 inh -150.7, ALR H2O2 inh -13.7 and FGF22 binding inactive.
For O=C1CC[C@@H](C(=O)O)N1 the results were LANA-H2A inh -2.2, HNF4A DNA FP -0.6, B2AR ag 9.7, UCH37 inh 4.7, ALR H2O2 inh -7.4 and FGF22 binding inactive.
`COc1cc(C2/C(=C(\O)c3ccc4c(c3)CC(C)O4)C(=O)C(=O)N2Cc2ccco2)ccc1O` (centres undefined) gave LANA-H2A inh -1.2, HNF4A DNA FP -0.1, B2AR ag -0.3, E coli growth 0.696, UCH37 inh 10.6, ALR H2O2 inh 31.6 and FGF22 binding inactive.

The closing 2 entries of the part above open the next one.
For O=C1CC[C@@H](C(=O)O)N1 the results were LANA-H2A inh -2.2, HNF4A DNA FP -0.6, B2AR ag 9.7, UCH37 inh 4.7, ALR H2O2 inh -7.4 and FGF22 binding inactive.
`COc1cc(C2/C(=C(\O)c3ccc4c(c3)CC(C)O4)C(=O)C(=O)N2Cc2ccco2)ccc1O` (centres undefined) gave LANA-H2A inh -1.2, HNF4A DNA FP -0.1, B2AR ag -0.3, E coli growth 0.696, UCH37 inh 10.6, ALR H2O2 inh 31.6 and FGF22 binding inactive.
Screening Cc1nc2ccc(NC(=O)N3CCOCC3)cc2nc1C returned LANA-H2A inh -5.4, HNF4A DNA FP -1.6, B2AR ag -6.8, E coli growth 0.636, UCH37 inh -418.5, ALR H2O2 inh -31.3 and FGF22 binding inactive.
Screening COc1ccc(CNC(=O)CN(Cc2ccc(C)cc2)S(=O)(=O)c2ccc(Cl)cc2)cc1 returned LANA-H2A inh 0.4, HNF4A DNA FP -1.7, B2AR ag -1.5, E coli growth 0.713, UCH37 inh 1.8 and ALR H2O2 inh -29.1.
For Cn1nccc1NS(=O)(=O)c1ccc(NC(=O)C(F)(F)F)cc1 the results were LANA-H2A inh -1.2, HNF4A DNA FP 2.4, B2AR ag -2.4, E coli growth 0.65, UCH37 inh 1.9, ALR H2O2 inh -12.1 and FGF22 binding inactive.
For COc1ccc(CC(=O)OCC(=O)NC(=O)NC23CC4CC(CC(C4)C2)C3)cc1 the results were LANA-H2A inh 3.6, HNF4A DNA FP 0.6, B2AR ag 0.9, E coli growth 0.655, UCH37 inh 3.1 and ALR H2O2 inh -13.0.
`COC(=O)c1cn(C(=O)c2ccc(C)cc2)c2ccccc12` gave LANA-H2A inh 2.8, HNF4A DNA FP -0.6, B2AR ag -2.8, E coli growth 0.684, UCH37 inh 0.6, ALR H2O2 inh -0.1 and FGF22 binding inactive.
Screening CN(C)CCNc1ncnc2c1sc1nc(-c3ccccc3)c3c(c12)CCCC3 returned LANA-H2A inh -7.3, HNF4A DNA FP 22.3, B2AR ag 30.6, E coli growth 0.624, UCH37 inh -2.1, ALR H2O2 inh -12.8 and FGF22 binding inactive.
Screening CN(Cc1c(F)cccc1Cl)C(=O)c1ccc2ccccc2n1 returned LANA-H2A inh -2.8, HNF4A DNA FP 0.2, B2AR ag -2.2, E coli growth 0.683, UCH37 inh 5.3, ALR H2O2 inh 1.3 and FGF22 binding inactive.
`CCOc1ccc2nc(SCC(=O)N(CC(C)C)c3c(N)n(Cc4ccccc4)c(=O)[nH]c3=O)[nH]c2c1` gave LANA-H2A inh -0.5, HNF4A DNA FP 4.0, B2AR ag 4.2, ALR H2O2 inh -6.2 and FGF22 binding inactive.
For CCn1cc(CNC(=O)c2ccc(Cl)c([N+](=O)[O-])c2)c(C)n1 the results were LANA-H2A inh 4.3, HNF4A DNA FP 0.0, B2AR ag 2.6, ALR H2O2 inh -5.0 and FGF22 binding inactive.
`CC(=O)C1C(c2cccc(F)c2)c2c(n[nH]c2C)CC1(C)O` (centres undefined) gave LANA-H2A inh 2.4, HNF4A DNA FP 1.1, B2AR ag 0.0, E coli growth 0.645, UCH37 inh 2.1, ALR H2O2 inh -1.5 and FGF22 binding inactive.
COc1ccc(OC)c(NC(=O)CCN2C(=O)c3ccccc3C2=O)c1 was read as LANA-H2A inh -2.1, HNF4A DNA FP 3.1, B2AR ag -6.9, E coli growth 0.704, UCH37 inh 0.0, ALR H2O2 inh 9.6 and FGF22 binding inactive.
For Cc1ccccc1C(=O)N1CCC(C(=O)Nc2ccc(F)cc2)CC1 the results were LANA-H2A inh 14.1, HNF4A DNA FP 3.3, B2AR ag 0.2, E coli growth 0.707, UCH37 inh 3.6 and ALR H2O2 inh -16.5.
COc1cccc(C2C(C(=O)c3cc4ccccc4o3)=C(O)C(=O)N2c2cc(C)on2)c1OC (centres undefined) was read as LANA-H2A inh -0.9, HNF4A DNA FP 0.0, B2AR ag 1.1, E coli growth 0.717, UCH37 inh 3.9 and ALR H2O2 inh 9.9.
For Cn1c(=O)c2c(ncn2CCC(=O)N/N=C/c2ccncc2)n(C)c1=O the results were LANA-H2A inh -15.2, HNF4A DNA FP 5.6, B2AR ag -3.3, ALR H2O2 inh -2.4 and FGF22 binding inactive.
`Cc1ccc(CNC(=O)c2ccc(N3CCC4(CC3)CC(c3ccccc3)=NO4)c(NC(=O)c3ccc(Br)cc3)c2)cc1` gave LANA-H2A inh -2.8, HNF4A DNA FP 2.5, B2AR ag -5.5, E coli growth 0.738, UCH37 inh 1.7, ALR H2O2 inh -6.5 and FGF22 binding inactive.
Screening COc1ccc(-n2c(C)cc(/C=C3\C(=O)NN(c4ccccc4)C3=O)c2C)cc1 returned LANA-H2A inh 1.0, HNF4A DNA FP -2.5, B2AR ag -10.3, E coli growth 0.707, UCH37 inh 9.4 and ALR H2O2 inh 24.8.
Screening Cc1ccc2cc(C)c(NCCO)nc2c1 returned LANA-H2A inh 0.3, HNF4A DNA FP -0.2, B2AR ag 1.4, E coli growth 0.75, UCH37 inh 2.1 and ALR H2O2 inh -1.0.
For Cc1ccc(NC(=O)C2=NNC(=O)CC2)cc1F the results were LANA-H2A inh -2.2, HNF4A DNA FP -5.2, B2AR ag -2.6, E coli growth 0.638, UCH37 inh 5.8, ALR H2O2 inh -3.4 and FGF22 binding inactive.
COc1cc(/C=C/C(=O)c2ccc(Cl)s2)cc(OC)c1O was read as LANA-H2A inh 0.7, HNF4A DNA FP 3.5, B2AR ag -2.7, E coli growth 0.706, UCH37 inh -0.5 and ALR H2O2 inh 67.3.
For Cc1cc(NC(=O)c2ccc(C#N)cc2)n(-c2ccccc2)n1 the results were LANA-H2A inh 7.3, HNF4A DNA FP -0.2, B2AR ag 6.3, E coli growth 0.653, UCH37 inh 1.4 and FGF22 binding inactive.
CC(NC(=O)C1CCN(S(=O)(=O)c2cc([N+](=O)[O-])ccc2Cl)CC1)c1ccccc1 (centres undefined) was read as LANA-H2A inh -4.6, HNF4A DNA FP 1.6, B2AR ag 0.0, E coli growth 0.702, UCH37 inh 3.7, ALR H2O2 inh -14.0 and FGF22 binding inactive.
Screening CCn1c(CNC(=O)c2ccco2)nnc1SCC(=O)Nc1cc(C)c(C)cc1Br returned LANA-H2A inh 0.0, HNF4A DNA FP 1.1, B2AR ag -3.9, E coli growth 0.728, UCH37 inh 1.7 and ALR H2O2 inh -5.9.
`O=c1cc(-c2ccccc2)nc2cc(-c3ccc(Br)cc3)[nH]n12` gave LANA-H2A inh 1.9, HNF4A DNA FP 2.6, B2AR ag 13.0, E coli growth 0.708, UCH37 inh -56.0, ALR H2O2 inh -7.1 and FGF22 binding inactive.
`O=C(Nc1ccccc1)C1(c2ccccc2)CC1(Cl)Cl` (centres undefined) gave LANA-H2A inh -7.7, HNF4A DNA FP 0.1, B2AR ag -2.0, E coli growth 0.648, UCH37 inh 1.4 and ALR H2O2 inh -0.8.
For CCOc1ccc(CN(C(=O)c2cc3ccccc3oc2=O)C2CCS(=O)(=O)C2)cc1 (centres undefined) the results were LANA-H2A inh 1.6, HNF4A DNA FP -5.3, B2AR ag -10.1, E coli growth 0.691, UCH37 inh 7.1, ALR H2O2 inh -1.2 and FGF22 binding inactive.
Screening COC(=O)c1cc(NC(=O)Nc2cc(OC)ccc2OC)cc(C(=O)OC)c1 returned LANA-H2A inh 1.2, HNF4A DNA FP 5.1, B2AR ag 27.6, E coli growth 0.719 and UCH37 inh 2.1.
Screening Cc1ccc(S(=O)(=O)N2[C@@H](c3ccccc3)C(C(=O)O)=CC[C@H]2c2ccc(C(C)C)cc2)cc1 returned LANA-H2A inh -3.3, HNF4A DNA FP -1.4, B2AR ag -11.2, UCH37 inh 5.0 and ALR H2O2 inh 4.8.
`CCOc1ccc(COC(=O)C2CC(=O)N(CCc3ccccc3)C2)cc1OC` (centres undefined) gave LANA-H2A inh 0.0, HNF4A DNA FP -1.6, B2AR ag 1.5, E coli growth 0.657, UCH37 inh -2.6, ALR H2O2 inh -0.3 and FGF22 binding inactive.
